S aureus helic – blocks Staphylococcus aureus DNA helicase; purified S. aureus helicase, fluorescence unwinding assay; about half of the hits fall short of the stated cut; inhibition, %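 (tested at about 80 µM)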; 0.05% of 120,000 active;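 active = both duplicates at 50% or more, or one of them with a favoured structure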;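 also: 0% = mean of negative control wells and 100% = mean of positive control wells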
MgrA DNA FP – modulators of Staphylococcus aureus MgrA DNA binding; fluorescence polarization; inhibition, %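 (about 10 µg/mL by stock and volumes)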; 0.13% of 84,000 active;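 active = above 50% in either of two replicates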;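 also: 0% = protein plus DNA without compound and 100% = DNA alone without protein; higher means less MgrA bound to DNA so lower polarization; one replicate is shown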
Starred values were filed as active, the others as inactive; nt = not tested or not shown. This is a subset; count on the stated rates, not on these rows.

no.	mol	S aureus helic	MgrA DNA FP
1	COc1ccc(CCN2C(=O)CC(NNc3ccccc3)C2=O)cc1OC (centres undefined)	14	nt
2	O=C1Nc2ccccc2OC1CC(=O)N1CCN(c2ccccc2)CC1 (centres undefined)	-1	9.8
3	Cc1cccc(N2CCN(CCNC(=O)CCc3nnc4n(CCCOC(C)C)c(=O)c5ccccc5n34)CC2)c1C	-17	nt
4	O=C(O)c1cccc(COc2cccc(Cl)c2)c1	2	-0.8
5	Cc1nnc(N(C)C(=O)CNC(=O)c2ccccc2)s1	-5	0.6
6	CCCSc1nnc(NC(=O)C(CC)CC)s1	0	nt
7	O=C(NC1CS(=O)(=O)CC1NCc1ccco1)c1ccccc1 (centres undefined)	11	-2.5
8	O=c1c2c(nc3cc(-c4cccc(Cl)c4)[nH]n13)CCCC2	23	0.2
9	CC(C)Cc1ccc(/C=C/C(=O)N2CCN(C/C=C/c3ccccc3)CC2)cc1	13	1.9
10	O=C(O)c1cc(NC(=O)c2cccc(N3C(=O)c4cccc5c([N+](=O)[O-])ccc(c45)C3=O)c2)cc(C(=O)O)c1	nt	33
11	COC(=O)Oc1ccc2c(=O)c(Oc3cccc(C)c3)coc2c1	12	nt
12	O=c1sc2ccccc2n1Cc1nnc(-c2ccccc2)o1	15	3.5
13	Cc1cc(=O)n2[nH]c(NC(=O)c3ccc(C(C)(C)C)cc3)nc2n1	13	nt
14	CC(C(=O)NCc1ccco1)n1nc(-c2ccccc2)c2cc(Cl)ccc21 (centres undefined)	10	nt
15	C=CCNC(=S)N/N=C1\C=C(C)CC(C)(C)C1	7	nt
16	c1ccc(Sc2ncnc3c2sc2ncccc23)cc1	nt	-2.2
17	Oc1ccc(Br)cc1C=Nc1ccc2n[nH]nc2c1	nt	2.5
18	CC(C)c1cc(C(=O)Nc2cccnc2)no1	11	1.5
19	Cc1ccc(NC(=S)N(CCC#N)C2CCCCC2)cc1	nt	-0.1
20	CC(C)NC(=O)CCCN1C(=O)c2ccccc2C1=O	12	nt
21	O=C(COC(=O)c1ccccc1C(=O)c1ccccc1)c1ccc(Cl)cc1	nt	-1.5
22	O=C1c2ccccc2C(=O)C1C1c2ccccc2Oc2ccccc21	nt	-0.9
23	COc1ccc2c(c1)CC(C1(O)C(=O)N(C)c3ccccc31)C2=O (centres undefined)	27	nt
24	COCCCn1cnnc1SCC(=O)Nc1ccc(C)c(C)c1	-5	nt
25	CS(=O)(=O)N1CCc2cc(C(=O)N3CCCc4ccccc43)ccc21	4	-1.9
26	Cc1nc(-c2ccccc2)cc(=O)[nH]1	-6	2.4
27	CC(=O)N1c2ccccc2Oc2cc3ccccc3cc21	14	-3.0
28	CC(C)Sc1nnc2oc3ccc(S(=O)(=O)N(C)C)cc3n12	1	nt
29	CC1Cc2ccccc2N1C(=O)CSc1nc(N)cc(N)n1 (centres undefined)	4	-0.1
30	N/C(Cc1cccs1)=N\OC(=O)c1ccccc1	-26	nt

Given with two lines to a compound: entries from further up
Sequence of screens: S aureus helic, MgrA DNA FP
3. Cc1cccc(N2CCN(CCNC(=O)CCc3nnc4n(CCCOC(C)C)c(=O)c5ccccc5n34)CC2)c1C
  -17, nt
2. O=C1Nc2ccccc2OC1CC(=O)N1CCN(c2ccccc2)CC1 (centres undefined)
  -1, 9.8
26. Cc1nc(-c2ccccc2)cc(=O)[nH]1
  -6, 2.4
1. COc1ccc(CCN2C(=O)CC(NNc3ccccc3)C2=O)cc1OC (centres undefined)
  14, nt

Going on with the list:
no.	mol	S aureus helic	MgrA DNA FP
31	CCN(CC)CC(=O)OCC1C(C)C=C(C)CC1C (centres undefined)	5	0.2
32	Nc1ccc(CC(CCC(=O)O)C(=O)O)cc1 (centres undefined)	-4	-2.5
33	Cn1nc(NC(=O)C(F)(F)F)c(-c2ccccc2)c1C(F)(F)F	nt	-2.3
34	CSc1nc(-c2cccnc2)nc(-c2ccc(OC(F)(F)F)cc2)c1C#N	nt	-1.5
35	CCOC(=O)c1sc(SC(C)C)c2c1CCCC2=O	nt	1.4
36	CCCn1c2ccccc2c2nc3cc(OC)c(OC)cc3nc21	nt	1.0
37	O=C(Nc1cccc(Cl)c1)Nc1ccccc1N1CCCCC1	nt	2.0
38	c1ccc(-n2ncc3c(N4CCc5ccccc54)ncnc32)cc1	nt	6.7
39	CCOC(=O)Cn1cnc2scc(-c3ccccc3)c2c1=O	3	-2.9
40	C=CCNC(=O)c1c(N)n(-c2ccc(C)cc2)c2nc3ccccc3nc12	-9	nt
41	Cc1ccc(OCC(=O)Nc2ccc3c(c2)OCO3)c(C(=O)c2cc(C#N)c(=O)n(C3CC3)c2)c1	6	nt
42	Cc1ccc(C(=O)COC(=O)c2ccc3nc(C)c(C)nc3c2)cc1	2	nt
43	CCN(CC)C(=O)Cn1c(=O)n(-c2ccccc2)c(=O)c2sccc21	13	nt
44	Cc1c(C(=O)N2CCN(c3ccc(Cl)cc3)CC2)oc2c1-c1[nH]ncc1CC2	-3	-1.4
45	Cc1nn(-c2ccccc2)c2[nH]c(=O)c(CNCc3cccnc3)cc12	9	-2.5
46	Cc1ccc(NC(=O)OC2COC3C(OC(=O)Nc4ccc(C)cc4)COC23)cc1 (centres undefined)	-11	nt
47	Cc1sc2nc(CSC(C)C(=O)Nc3ccc(N4CCN(C)CC4)cc3)[nH]c(=O)c2c1C (centres undefined)	-11	nt
48	Cc1c(Br)cc(C(=O)N2CCCC2)c(C)c1C	9	nt
49	Cc1cc(N)n(-c2ncnc3sc4c(c23)CCC4)n1	-1	nt
50	CCC(=O)Oc1c(S(=O)(=O)c2ccccc2)c(C)nn1C(C)(C)C	3	-1.0
51	CS(=O)(=O)c1cccc(C(=O)Oc2ccccc2)c1	21	nt
52	O=C(NCCC1=CCCCC1)c1c(O)nc2ccccn2c1=O	-7	nt
53	CC1CCc2nc(NC(=S)NCc3ccco3)sc2C1 (centres undefined)	6	-0.9
54	CCCCOc1ccc(OCCCC)c2c1NC1(N2)C(=O)Nc2ccc([N+](=O)[O-])cc21	nt	-1.6
55	O=C(Nc1cc(C(=O)N2CCOCC2)ccc1N1CC2CC(C1)c1cccc(=O)n1C2)c1ccc(Br)o1 (centres undefined)	1	nt
56	CC1(C)CC(N2CCC(O)(c3ccccc3)C(C(=O)c3ccccc3)C2)CC(C)(C)N1 (centres undefined)	1	-7.7
57	CCCc1cc(=O)[nH]c(SCC(=O)N2CCN(S(=O)(=O)c3ccccc3)CC2)n1	-9	nt
58	CC(=O)NC(Cc1ccc(F)cc1)C(=O)OCc1ccccc1 (centres undefined)	12	-2.7
59	Cc1cc(NC(=O)c2cc3c(CO)cnc(C)c3oc2=N)ccc1Br	28	nt
60	CC(CC(=O)NCc1cccs1)CC1=NS(=O)(=O)c2ccccc2N1 (centres undefined)	4	nt

Next section; it opens with the two that closed the last part.
no.	mol	S aureus helic	MgrA DNA FP
59	Cc1cc(NC(=O)c2cc3c(CO)cnc(C)c3oc2=N)ccc1Br	28	nt
60	CC(CC(=O)NCc1cccs1)CC1=NS(=O)(=O)c2ccccc2N1 (centres undefined)	4	nt
61	O=C(COc1ccc(NS(=O)(=O)c2cccc3cccc(Cl)c23)cc1)N1CCOCC1	2	0.2
62	CCOC(=O)N1CCN(C(=O)CSc2c(-c3ccccc3)[nH]c3ccccc23)CC1	4	nt
63	O=C(NCCO)c1ccn[nH]1	8	nt
64	CCc1cccc(CC)c1NC(=O)/C=C/C(=O)O	nt	-4.0
65	N#CC1=C(N)Oc2ccc(Br)cc2C1C(C#N)C#N (centres undefined)	nt	2.2
66	C=CCNc1nc(C(=O)OC2CCCCC2=O)cs1 (centres undefined)	4	nt
67	COc1ccc(CNC(C)C(=O)NCc2ccc3c(c2)OCO3)cc1OC (centres undefined)	-3	nt
68	Cc1ccc2nc(N3CC(=O)Nc4ccccc43)nc(-c3ccccc3)c2c1	nt	-1.0
69	Cc1cc(C(=O)COC(=O)C2=COCCO2)c(C)n1-c1ccccc1	-6	nt
70	Cc1[nH]n(-c2ccccc2)c(=O)c1/C=N/N1CCOCC1	12	nt
71	COC(=O)c1cccc(OC)c1[N+](=O)[O-]	nt	-0.1
72	CC(C)(CC(=O)O)Cc1nc2ccccc2c(=O)[nH]1	0	-3.2
73	Cc1cc2ncc(-c3ccnc(SCC(=O)c4ccc(Cl)cc4)n3)c(C)n2n1	nt	3.1
74	Cc1ccc(S(=O)(=O)N(CC(=O)NCc2ccccc2)C(=O)N2CCN(C)CC2)cc1	6	nt
75	Cc1ccc(-c2n[nH]c(=S)n2CC(=O)O)cc1	-13	nt
76	S=C(NC12CC3CC(CC(C3)C1)C2)N1CCOCC1	6	2.4
77	CC(C)(C)C(=O)OCN1N=CN(Cc2ccccc2)C=C1SC#N	-5	nt
78	Cc1nc2sccn2c(=O)c1S(=O)(=O)NCC1CCN(Cc2ccc(Cl)cc2)CC1	23	nt
79	CCOc1cc(-c2nnc(-c3ccco3)o2)cc(OCC)c1OCC	-6	3.1
80	CCc1cc2c(=O)c(-c3nc4ccccc4[nH]3)coc2c(CN2CCC(C)CC2)c1O	9	nt
81	NC(=O)Nc1ccc2[nH]ncc2c1	nt	3.8
82	CCC(=O)N(/C=C1\Sc2ccccc2C1=O)Cc1ccccc1	nt	0.6
83	CC(C)c1ccc(N=C=S)cc1	18	nt
84	CC(=O)Nc1ccc(S(=O)(=O)n2cnc(C)c2)cc1	10	nt
85	Cc1ccc(NC(=O)C(c2ccccc2)N2CCCN(S(=O)(=O)c3c(C)noc3C)CC2)cc1 (centres undefined)	-6	nt
86	CCOC(=O)c1sc2ncn(CC(N)=O)c(=O)c2c1C	0	nt
87	Cc1ccc(C)n1-c1ccc(C(=O)Nc2nccs2)cc1	-12	nt
88	Cc1cccc(-n2nnnc2-c2ccc3ccccc3n2)c1	-11	nt
89	O=C(Nc1ccccc1)Nc1cccc2nsnc12	9	1.4
90	CN(C)c1ccc(NC(=O)c2ccc(Cl)cc2)cc1	nt	-1.1
91	CC(C)(C)Nc1nc(Cl)nc(N(C#N)CN2C(=O)c3ccccc3S2(=O)=O)n1	9	-3.9
92	O=C(O)CCNc1cc(Cl)ccc1Oc1ccc(Cl)cc1	4	5.1
93	CCSC1=NSC2=NC(=O)/C(=C\c3cccnc3)C(=N)N12	-9	nt
94	Cc1c(SCCO)c(=O)[nH]c2cc3c(cc12)OCO3	0	1.6
95	Cc1ccc(C2C3=C(CC(C)(C)CC3=O)OC3=C2C(=O)CC(C)(C)C3)o1	0	nt
96	O=C1NC(=O)C(CC2CCCN3CCCCC23)C(=O)N1 (centres undefined)	8	-8.2
97	CCN1CCN(C(=O)C(C)Sc2nnc(-c3ccncc3)n2-c2ccccc2C)CC1 (centres undefined)	8	nt
98	Cn1cccc1C1Nc2ccccc2NC2=C1C(=O)CC(C)(C)C2 (centres undefined)	3	1.1
99	Cc1csc(N)c1C#N	-5	nt
100	Cc1ccc2nc(Cn3cc(S(=O)(=O)N4CCCC4)ccc3=O)cn2c1	17	nt
101	COC(=O)c1ccc2c(=O)[nH]c(COC(=O)/C=C/c3ccc(S(=O)(=O)NCc4ccco4)cc3)nc2c1	-4	nt
102	CCOC(=O)c1csc(-n2cccc2)n1	nt	0.4
103	COc1cccc(-c2ccc(SCC(=O)N3CCOCC3)nn2)c1	5	nt
104	O=C(C1CCCN1S(=O)(=O)c1cccc2nsnc12)N1CCCCCC1 (centres undefined)	5	0.5
105	CCn1c(SCCc2ccccc2)nnc1-c1nnc(SCCc2ccccc2)n1CC	-7	1.5
106	CC12CCC(C(=O)N3CCCCC3)(CC1=O)C2(C)C (centres undefined)	-21	nt
107	CC(O)CCc1sc2ccccc2[n+]1C (centres undefined)	-17	nt
108	CC(C)N(Cc1ccccc1)S(=O)(=O)c1ccc2ccccc2c1	nt	0.1
109	COCCCn1c(C)cc(C(=O)COC(=O)C23CC4CC(CC(O)(C4)C2)C3)c1C	-10	nt
110	CC(C)c1cc(NC(=O)C(C)(C)C)cc(C(C)C)c1O	25	-1.0
111	CN1C(=O)CCC1(O)c1ccccc1 (centres undefined)	nt	-1.8
112	CCCc1cc(N)on1	9	nt
113	O=S(=O)(c1cc(C(F)(F)F)ccn1)c1cccs1	nt	-1.4
114	CCOc1ccc(-c2cc(C(=O)N3CCN(C(=O)c4ccco4)CC3)[nH]n2)cc1	23	nt
115	CCOC(=O)c1ccc2c(c1)NC(CC(=O)Nc1ccccc1C)C(=O)N2CC (centres undefined)	-12	nt
116	CCOC(=O)c1cnc(SCC(=O)OCCCn2c(=O)[nH]c3ccccc32)nc1N	-4	nt
117	COc1ccc2oc(=O)cc(CN3CCCc4ccccc43)c2c1	7	nt
118	c1ccc(Cc2nnc3sc(-c4ccccn4)nn23)cc1	1	nt
119	CCN1C(=O)C(=Cc2cn(Cc3c(F)cccc3Cl)c3ccccc23)C(=O)N(CC)C1=S	9	1.9
120	CCN1C(=O)c2ccc(C(=O)NCc3ccccc3)cc2C1=O	-4	7.1

Continued.
no.	mol	S aureus helic	MgrA DNA FP
121	O=C(O)c1coc(=O)c(Br)c1	-2	nt
122	CC(O)C(C(=O)O)N1C(=O)c2ccccc2C1=O (centres undefined)	-9	nt
123	Cc1ccc2c(CN(C)Cc3ccco3)cc(=O)oc2c1	-4	-6.0
124	CCCc1cc(C(=O)NC2CCCCC2)no1	-26	nt
125	COc1ccc(C(=O)Nc2cccnc2Oc2ccc(Cl)cc2)cc1OC	nt	1.8
126	CCC(CC)NC(=O)/C=C/c1ccccc1	2	-0.4
127	CC(C)(C)c1csc(NC(=O)c2ccc(C#N)cc2)n1	12	nt
128	O=C1NC(=O)/C(=C\c2ccc(N3CCCC3)c(F)c2)N1	-6	2.5
129	CCn1c(C(=O)N2CCc3ccccc3C2)cc2sccc21	5	0.3
130	S=c1n(CN2CCCCC2)cnn1CN1CCCCC1	9	3.5
131	N#CCC(=O)Nc1ccc(C(=O)OCc2ccccc2Cl)cc1	-12	-0.7
132	Cc1nc(NC(=O)CSc2nc3cccnc3n2C2CCCCC2)sc1C	2	1.1
133	Cc1cc(CN2CCN(CCC#N)CC2)c(O)c(C2(C)CCCCC2)c1	13	2.2
134	CCOc1ncccc1C(=O)Oc1ccc(C(=O)OC)cc1OC	8	nt

Assay outcomes (PubChem BioAssay)
